Screens as filed in PubChem BioAssay.
Env fusion inh – blocks HIV Env-driven cell-cell fusion | AID 651610 | HeLa-JRFL Env/CEM21 cell fusion, luciferase | inhibition, % at 12.3 µM | actives 1.1% (n = 360,000);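 active means mean replicate inhibition score of at least 50 and every replicate individually at or above 50; inconclusive means only one of the two criteria met; inactive means mean below 50 and not all replicates reaching 50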;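 further: 0% = plate neutral controls and 100% = maraviroc near 300 nM; one replicate is shown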
Yeast UUG start – yeast start codon fidelity modulation | S. cerevisiae UUG-firefly luciferase reporter, luminescence/redox ratio | activity score, % at 18.7 µM | actives 0.13% (n = 350,000);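 active means replicate mean at a twofold rise or more, about +100% in these data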;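 further: firefly luciferase made from a UUG start codon reports start codon fidelity; reporter light over untreated wells divided by growth signal over untreated wells; some hits fall short of that in this replicate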
PABP polyA inh – PABP-poly(A) binding inhibition; P11940; PABP-poly(A) RNA binding, fluorescence polarization; inhibition, % at 35 µM; actives 1% (n = 290,000); AID 2014;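 active means 50% or more with normal probe brightness, or confirmed in later tests; inconclusive means above 50% with abnormal brightness, or retests that disagree; inactive means below 50% or failed in later tests; about a fifth of its hits are not listed in these tables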;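 further: calls also rest on retests at 20 µM and on dose response follow-up; controls were probe without protein and protein plus probe with vehicle; some compounds called inactive have numbers as strong as hits; many hits fall short of the cut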
Target sequence (P11940 whole entry, looked up): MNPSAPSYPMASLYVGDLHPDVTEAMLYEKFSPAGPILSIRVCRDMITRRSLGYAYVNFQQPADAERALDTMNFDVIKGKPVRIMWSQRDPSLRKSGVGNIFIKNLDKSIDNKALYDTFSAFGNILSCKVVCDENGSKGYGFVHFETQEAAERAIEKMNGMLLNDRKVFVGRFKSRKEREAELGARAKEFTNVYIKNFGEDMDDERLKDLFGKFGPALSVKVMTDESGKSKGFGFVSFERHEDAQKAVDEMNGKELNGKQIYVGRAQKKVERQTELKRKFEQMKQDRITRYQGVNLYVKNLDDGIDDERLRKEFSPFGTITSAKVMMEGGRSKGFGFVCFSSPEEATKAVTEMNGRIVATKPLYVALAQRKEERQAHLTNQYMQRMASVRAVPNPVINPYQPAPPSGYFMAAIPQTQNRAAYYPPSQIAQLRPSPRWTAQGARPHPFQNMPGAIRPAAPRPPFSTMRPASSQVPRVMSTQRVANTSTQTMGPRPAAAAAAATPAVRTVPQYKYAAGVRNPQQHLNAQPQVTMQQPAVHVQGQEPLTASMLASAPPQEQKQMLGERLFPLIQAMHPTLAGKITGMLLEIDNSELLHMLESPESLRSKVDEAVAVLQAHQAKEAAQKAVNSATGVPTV
eIF4H inh – inhibitors of RNA binding by human eIF4H; actives 0.94% (n = 290,000); inhibition, % at 35 µM; eIF4H fluorescence polarization binding assay; AID 2012;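 active means 50% or more with normal probe brightness, or confirmed in later tests; inconclusive means above 50% with abnormal brightness, or retests that disagree; inactive means below 50% or failed in later tests; about a fifth of its hits are not listed in these tables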;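 further: calls also rest on retests at 20 µM and on dose response follow-up; 0% = protein and probe with vehicle and 100% = probe without protein; strong numbers were not always called active; many hits fall short of the cut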
Rce1 inhib – yeast Ras-converting enzyme inhibition. calls only. actives 0.27% (n = 290,000). Q03530. yeast membranes, quenched prenylated peptide cleavage fluorescence;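 active means fall in fluorescence gain of 50% or more versus controls, with final raw signal at or below 3038400; inconclusive means same 50% fall but final raw signal above 3038400; inactive means fall in fluorescence gain under 50%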;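 further: plate controls were neutral control wells for no effect and wells lacking membranes for full effect; tested at 10 µM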
CSC inhib – cancer stem cell inhibition | cancer stem cell-like cells viability, luminescence | inhibition, % at 7.5 µM | actives 1.1% (n = 300,000) | AID 2717;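 active means mean at 75% or more and at least half the replicates too; inconclusive means mean and replicates disagree; tested in HMLE shEcad cells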;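 further: 0% = median of negative and 100% = median of positive control wells; the first replicate is given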
MT1-MMP act inh – MT1-MMP (human) activation inhibition; P50281; HT1080 RFP-PRO-GFP cells, GFP/RFP ratio fluorescence, overnight; percent of plate control window, DMSO zero; GFP/RFP ratio change, % at 20 µM; actives 0.061% (n = 360,000); AID 651647;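 active means GFP/RFP ratio change of at least 30% with cell ATP level not reduced by more than half and red fluorescence within 50% of control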; further: strong numbers were not always called active
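Assay system: RFP-PRO-GFP reporter HT1080 cells; read-out basis: GFP/RFP fluorescence ratio; benchmarks: DMSO wells and RFP-L50D-GFP cells; doses: 20 µM single dose, 1% DMSO; schedule: overnight cell settling, then overnight compound exposure, 37 °C, 5% CO2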
eIF4H inh retest – recorded beside eIF4H inh, whose call it bears; inhibition, %; compound at 20 µM; confirmation average;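 mean of two retest wells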
PABP polyA inh retest – also measured in PABP polyA inh; calls as there; inhibition, %; compound at 20 µM; confirmation repeats;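 mean of two retest wells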
MT1-MMP act inh RFP – also measured in MT1-MMP act inh; calls as there; RFP signal change, %; measured here: RFP expression control read;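 0 = vehicle wells; hits needed this value within 50% of zero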
Starred values were filed as active, the others as inactive; i = inactive; ? = inconclusive; / = no result given; & = joins results of further samples. Some of the compounds tested; count on the stated rates, not on these rows.

SMILES	Env fusion inh	Yeast UUG start	PABP polyA inh	eIF4H inh	Rce1 inhib	CSC inhib	MT1-MMP act inh	MT1-MMP act inh RFP	others
COCCOCCn1c(/C=C/c2ccccc2)nc2ccccc21	-88	/	-9	-2	i	5	3	0
Cc1ccc(N(CC(=O)NC2CCCC2)C(=O)CCC(=O)Nc2nc(C)cs2)cc1	0	-4	3	-5	i	13	-2	0
CC1(C)S[C@@H]2[C@H](NC(=O)C(C(=O)O)c3ccccc3)C(=O)N2[C@H]1C(=O)O (stereo not given in full)	/	-19	14	-8	i	/	-2	0
O=C(Nc1ccc(NS(=O)(=O)c2ccccc2)cc1)c1ccccc1	-11	-15	-3	2	i	/	3	2
CCCCn1c(SCC(=O)N2c3ccccc3CCc3ccccc32)nc2c1c(=O)n(C)c(=O)n2C	/	-12	6	-10	i	7	-16	-12
O=C(NCc1ccc2c(c1)OCO2)c1nnc(Cc2ccc(Cl)cc2)o1	-23	-5	-4	-5	i	9	-15	-5
Cc1ccccc1CC1(CO)CCCN(C(=O)c2ccccc2Cl)C1 (stereo not given)	-4	/	-4	4	i	-11	-2	-7
CN1C(=O)CCC2(c3ccccc3)CC=C(O)C=C12 (stereo not given)	-1	-8	/	/	/	/	1	1
Clc1cccc(CNCCCSc2ncccn2)c1Cl	-3	-8	50	21	i	11	-1	1	eIF4H inh retest=-7;PABP polyA inh retest=17
N#Cc1ccccc1COc1cccc2c1CCCC2O (stereo not given)	4	-6	-1	0	i	-13	3	-1
COC(=O)[C@@H]1[C@@H](C#N)C2(c3ccccc3-c3ccccc32)N(c2ccc(Cl)cc2)N1C#N	-362	-13	-3	4	i	105*	1	-1
O=C(CN1C(=O)C2C3C=CC(C3)C2C1=O)NC1CCCc2ccccc21 (stereo not given)	-22	-13	-12	-1	i	5	-5	-2
CC1=C(C(N)=O)S(=O)(=O)c2ccccc21	12	-11	24	36	i	1	-6	-2
COc1ccccc1/C=C/c1onc(C)c1S(=O)(=O)N1CCC(C(=O)NC(C)C)CC1	-1	-13	-2	0	i	0	1	-4
CC(C)(C)OC(=O)N1CCN(C(=O)Nc2ccc3c(c2)OCCO3)CC1	19	-8	8	-7	i	/	3	3
COc1cccc(-c2csc(N3CCN(CC(=O)NNC(=O)c4ccco4)CC3)n2)c1	-2	/	-2	-7	i	-7	-2	1
COC(=O)C1=C(C(=O)OC)[C@@H]2N(C)c3ccccc3[C@@]23C[C@@H](C(=O)OC)N(C(=O)c2cccs2)C3=N1	-29	-3	14	-8	i	0	-5	4
COc1ccc(S(=O)(=O)N2CCOCC2)cc1NS(=O)(=O)c1ccc(F)c(F)c1	-7	-20	/	/	/	-4	-1	1
COc1ccc(CCC(C)Nc2cccc(C)c2)cc1 (stereo not given)	18	-16	4	4	i	2	0	3
CCN(CC)C(=O)C1=C(C)N(Cc2ccc(C(C)(C)C)cc2)C(=O)C(CC(=O)NCc2cccs2)C1 (stereo not given)	19	-6	/	/	/	/	7	-3
CC(C)COc1cccc(C(=O)NC(=S)NCc2cccnc2)c1	31	-21	8	-8	i	37	-1	-6
COC(=O)c1c(-c2ccc(Br)cc2)noc1N	-51	-11	8	-6	i	-15	3	-5
CCC(C)C(=O)Nc1ccc(OC)cc1OC (stereo not given)	22	-11	-13	6	i	/	10	11
Cc1cc(NC(=O)CN2C(=O)[C@@H]3[C@H](C2=O)[C@@H]2C[C@H]3C(Br)C2Br)no1 (stereo not given in full)	12	/	1	-7	i	8	6	5
C=CCN=Cc1sc2ccc(OCC)cc2c1O	-26	/	-11	-10	i	1	/	/
Cc1ccc(NC(=O)CSc2nnc(NC(=O)c3ccco3)s2)cc1	15	7	-3	0	/	2	-4	1
COC(=O)C1=C(C)OC(N)=C(C#N)C1c1c(C)nn(C)c1C (stereo not given)	5	-4	-3	5	i	-15	-1	5
C[C@@H](O)CC#Cc1ccc2oc(=O)c(-n3cc(-c4ccsc4)nn3)cc2c1	-10	-17	/	/	/	15	1	1
CCC(=O)N1N=C(c2ccc(C)o2)CC1c1ccc(N(C)C)cc1 (stereo not given)	2	/	26	-1	i	-3	1	2
CC1(C)CC(=O)C=C(Nc2ccccc2)C1	6	/	2	9	i	-1	7	1
Cc1ccc(NC(=O)CN(C)C(=O)COC(=O)COc2ccc(C#N)cc2)cc1	-6	-15	/	/	i	-14	0	2
CN(C(=O)c1ccc(NC(=O)c2ccco2)cc1)c1ccccc1	-13	-14	-3	11	i	10	3	6
Cc1nc(N2CCCCC2)sc1C(=O)c1ccc(SCCO)c([N+](=O)[O-])c1	-24	-10	41	-5	i	-5	-3	-13
O=S(=O)(NCC1CCCO1)c1ccc(S(=O)(=O)N(Cc2ccc(F)cc2)C2CCCCC2)cc1 (stereo not given)	/	-5	/	/	i	15	-7	2
COc1ccc(-n2c(C(C)n3nc(C)c([N+](=O)[O-])c3C)n[nH]c2=S)cc1 (stereo not given)	-116	-14	-72	-4	i	3	-1	5
O=C(Cc1cccs1)Nc1cccc(-c2ccc3nncn3n2)c1	23	/	-4	2	i	6	2	3
CCOC(=O)c1c(C)[nH]c(C(=O)N/N=C/c2ccc(Br)cc2)c1C	/	/	-5	-2	i	69	12	-4
CCc1cc(C(=O)N/N=C/c2ccc(O)cc2O)c2ccccc2n1	32	-8	-9	-4	/	94*	7	1
CC(=O)Nc1ccc(SCCN2CC[C@@H](C)CCC2=O)cc1	-14	-8	/	/	/	-3	3	3
[O-][N+]1=C2CCC/C(=N\O)C2=NC12CCCCC2	/	-12	-4	7	i	-7	2	1
CC(=O)Nc1ccc(S(=O)(=O)Nc2nnc(CC(C)(C)C)s2)cc1	9	/	5	-1	i	-16	-1	3
CC1(C)CC(=O)C2=C(C1)Nc1ccccc1NC2c1ccccn1 (stereo not given)	/	-18	6	-5	i	-12	-3	7
CN(C)NC(=O)c1csnc1-c1c(Cl)cccc1Cl	7	/	-12	-7	i	-14	3	0
CC(c1ccc(F)cc1)n1cc(C(=O)NCCN(C)C)nn1 (stereo not given)	3	/	-5	3	i	62	3	5
CCCC1(C(=O)OCC)NC(c2ccc(N(C)C)cc2)C2C(=O)N(c3ccc(F)cc3)C(=O)C21 (stereo not given)	-52	-7	-1	8	i	/	2	1

Fetched one by one from the entries so far, 4 records:
SMILES	Env fusion inh	Yeast UUG start	PABP polyA inh	eIF4H inh	Rce1 inhib	CSC inhib	MT1-MMP act inh	MT1-MMP act inh RFP	others
CN(C(=O)c1ccc(NC(=O)c2ccco2)cc1)c1ccccc1	-13	-14	-3	11	i	10	3	6
CC1(C)CC(=O)C2=C(C1)Nc1ccccc1NC2c1ccccn1 (stereo not given)	/	-18	6	-5	i	-12	-3	7
CCCC1(C(=O)OCC)NC(c2ccc(N(C)C)cc2)C2C(=O)N(c3ccc(F)cc3)C(=O)C21 (stereo not given)	-52	-7	-1	8	i	/	2	1
CC(=O)Nc1ccc(SCCN2CC[C@@H](C)CCC2=O)cc1	-14	-8	/	/	/	-3	3	3

New compounds follow
SMILES	Env fusion inh	Yeast UUG start	PABP polyA inh	eIF4H inh	Rce1 inhib	CSC inhib	MT1-MMP act inh	MT1-MMP act inh RFP	others
CCOC(=O)C1CCCN(C(=O)c2cc3ncc(Br)cn3n2)C1 (stereo not given)	/	-19	10	13	i	2	0	4
CC(C)OC(=O)C(NC(=O)c1ccccc1)=C1CCCCC1	-48	-14	-1	5	i	-9	0	-2
CCN1CCN(c2oc(-c3ccc([N+](=O)[O-])cc3)nc2C#N)CC1	-13	-1	1	-2	i	-15	0	-7
C[C@H]1CN([C@@H](C)CO)C(=O)c2cccc(NC(=O)Nc3ccc(C(F)(F)F)cc3)c2O[C@@H]1CN(C)S(=O)(=O)c1ccc(Cl)cc1	-63	-15&-12	/	/	/	130*	-1	-26
Cc1ccc(N(CC(=O)N2CCCCCC2)S(C)(=O)=O)cc1	-5	-3	/	/	/	/	1	5
CCCN(CC(=O)NC(=O)NC1CCCCC1)CC(=O)Nc1cc(Cl)ccc1Cl	11	-5	/	/	/	63	0	-6
COc1ccc(C(CCNC(C)c2ccccc2)c2ccc(F)cc2)cc1 (stereo not given)	35	-3	12	8	i	11	-2	-10
CN(C)c1ccc(/C=N\Nc2ccccn2)cc1	-72	-19	2	-2	i	-7	0	-7
O=C(c1cc2cc(F)ccc2[nH]1)N1CCC(Cc2ccccc2)CC1	-20	-17	14	11	i	38	0	0
Cc1ccc(NC2CCCN(C(=O)c3cccc(-c4ncc[nH]4)c3)C2)cc1C (stereo not given)	43	8	-8	-9	i	-1	-5	1
Cc1cccc(NC(=O)CN(c2ccc(C(C)C)cc2)S(=O)(=O)c2c(C)nn(C)c2C)n1	20	2	1	0	i	7	-2	-2
COc1ccc(Cl)cc1NC(=O)CSc1nnc(C)c(=O)n1N	/	-4	0	-2	i	-3	-1	-3
CN(Cc1ccno1)C(=O)CC1C(=O)NCCN1CC(c1ccccc1)c1ccccc1 (stereo not given)	7	-3	2	18	i	-9	-5	-1
NC(=O)c1cccc2c3c([nH]c12)CCCC3	/	-2	-3	-4	i	5	1	-1
COc1ccc(CC(=O)NCCc2ccc(OC)c(OC)c2)cc1	4	-9	11	4	i	3	-6	-1
C[C@@H]1CN([C@H](C)CO)C(=O)CCCn2nncc2CO[C@H]1CN(C)Cc1ccc(C(=O)O)cc1	-8	-6	/	/	/	/	1	5
O=C(N/C(=C\c1ccc(Br)cc1)C(=O)N1CCCC1)c1ccccc1F	-6	-6	8	9	i	-10	-2	2
O=C(NCCc1nnc2ccc(N3CCCCCC3)nn12)c1ccccc1F	10	-20	5	-2	i	-6	2	1
C=CCn1c(SCC(=O)NC2CC2)nc2sc(CC)cc2c1=O	9	/	-9	-3	i	-7	0	-2
CCOC(=O)c1cnn(-c2ccccc2)c1-n1cccc1C(=O)C(=O)Nc1ccccc1	/	-4	14	-7	i	11	-1	-3
CC(C)CCOc1cccc(OCC(=O)Nc2ccncc2)c1	12	-47	-7	6	i	20	0	-28
O=C(COc1cccnc1[N+](=O)[O-])N1CCN(S(=O)(=O)c2ccc3ccccc3c2)CC1	-45	/	-8	2	i	-1	2	5
COC(=O)c1ccc(-c2noc(CN(C)Cc3ccncc3C)n2)cc1	13	-18	2	12	i	-5	-2	1
CCN1C(=O)NC(c2ccccc2)(c2ccccc2)C1=O	-16	/	/	/	i	-18	-1	1
CCOc1ncccc1C(=O)OCc1cc(=O)oc2c(C)c(C)ccc12	-19	-9	-4	-9	i	/	2	-3
CCOC(=O)c1c(C)[nH]c(C)c1C(=O)COC(=O)[C@@H](NC(=O)c1ccco1)C(C)C	/	-1	/	/	/	-16	2	2
CC(=O)N1CCc2cc(NS(=O)(=O)c3cccs3)ccc21	/	-6	9	3	i	-19	1	0
COc1ccc(CN(Cc2ccc(C(=O)O)cc2)C(=S)Nc2ccccc2F)cc1OC	-42	-13	4	-1	i	-3	-2	0
Cc1ccc(C(=O)NCCSc2ccccc2)cc1S(=O)(=O)Nc1ccccc1	?	2	-4	10	/	/	-2	-6
Cc1ccc(S(=O)(=O)NC(=O)c2ccccc2)cc1C(C)C	11	/	1	2	i	2	-2	-1
COc1ccc(CNC(=O)COC(=O)c2ccc(C(=O)c3ccccc3)cc2)cc1	-5	-19	/	/	/	-13	-1	-3
COc1ccc(/C=C2\SC(=S)N(CCC(=O)N3CCOCC3)C2=O)cc1	22	-17	-3	6	i	14	1	4
COCCn1c(SCC(=O)c2cc(C)n(C)c2C)nc2ccccc2c1=O	8	/	-2	8	i	-9	-1	4
